# Source: PubChem BioAssay (National Center for Advancing Translational Sciences (NCATS))
# GLA inh pH 4.5: qHTS Assay for Inhibitors of Human alpha-Galactosidase at pH 4.5. Alpha-galactosidase A (Homo sapiens), P06280. purified enzyme, 4-MU-alpha-Gal fluorescence, pH 4.5. activity change, negative = inhibition, % at 105 µM. 230,000 tested, under 10 active; inconclusive = small, poorly fitted or top-dose-only inhibition, or a rising curve; inactive = flat fitted curve, though single readings scatter; no compound was filed as active;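 note: 0% = full activity with enzyme and -100% = basal without enzyme; dose as in the result columns while the protocol names 77 µM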
# miR-21 reporter: qHTS Assay for Modulators of miRNAs and/orActivators of miR-21 | HeLa miR-21 FLuc reporter, luciferase, 48 h | Potency, µM (series often up to 38.3 µM), without a hit: at the top dose reporter change, positive = more light | 340,000 tested, under 10 active; active = well fitted rising curve with a large enough effect; inconclusive = small, poorly fitted or top-dose-only effect; inactive = no such curve, though single readings can be large or run the other way;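 note: % of control where 0% means no effect; miR-21 action dims this reporter so a rising signal means less miR-21 action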
#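 HeLa cells stably expressing CMV-driven firefly luciferase with a downstream miR-21 binding sequence, endogenously expressing miR-21, were treated with titrations (up to about 40uM final) for 48 hours at 37 degree Celsius. Luciferase luminescence was read after lysis.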
# Rango dissoc inh: qHTS Assay for Inhibitors of RanGTP induced Rango (Ran-regulated importin-beta cargo) - Importin beta complex dissociation; Snurportin-1 (Homo sapiens) + GTP-binding nuclear protein Ran (Homo sapiens) + Importin …; Biochemical FRET Rango-importin beta, RanGTP-induced dissociation; Potency, µM (top dose mostly 46.1 µM), for inactives: at the top dose activity change, negative = inhibition; 340,000 compounds, 0.071% hits; AID 540253, 2011; active means falling FRET ratio curve, often poorly fitted, with flat reads before Ran was added; inconclusive means other falling curves, or compound fluorescence or quenching; inactive means flat or rising ratio curve;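 note: potency is the fitted concentration of half-maximal effect; % of control where 0% means no effect; nearly all actives have a fitted effect of over 45% in size; -100% = wells without RanGTP and RCC1; the record marks most hits as doubtful in a second field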
#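 Two FRET readings bracket the reaction: one 5 min after compound meets Rango–importin beta, another 45 min after RanGTP-RCC1 (0.6 uM Ran, 0.2 uM RCC1, 2 mM GTP) is added. Only the second defines inhibition.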
# Rango-impB inh: qHTS Assay for Inhibitors of Rango (Ran-regulated importin-beta cargo) - Importin beta complex formation. Importin subunit beta-1 (Homo sapiens), Q14974. Rango CFP/YFP FRET sensor + importin beta, 45 min. Potency, µM (doses to about 92.2 µM), without a hit: at the highest dose inhibition of complex formation. 340,000 compounds, 0.031% hits. AID 540263, 2011; active = rising FRET ratio curve, often small or poorly fitted; inconclusive = mostly compound fluorescence or quenching in the first reads; inactive = flat curves in all reads;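 note: potency is the fitted concentration of half-maximal effect; 0% = DMSO wells and 100% = buffer wells lacking importin beta; nearly all actives have a fitted effect of over 15% in size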
# Target sequence (Q14974 whole entry, looked up): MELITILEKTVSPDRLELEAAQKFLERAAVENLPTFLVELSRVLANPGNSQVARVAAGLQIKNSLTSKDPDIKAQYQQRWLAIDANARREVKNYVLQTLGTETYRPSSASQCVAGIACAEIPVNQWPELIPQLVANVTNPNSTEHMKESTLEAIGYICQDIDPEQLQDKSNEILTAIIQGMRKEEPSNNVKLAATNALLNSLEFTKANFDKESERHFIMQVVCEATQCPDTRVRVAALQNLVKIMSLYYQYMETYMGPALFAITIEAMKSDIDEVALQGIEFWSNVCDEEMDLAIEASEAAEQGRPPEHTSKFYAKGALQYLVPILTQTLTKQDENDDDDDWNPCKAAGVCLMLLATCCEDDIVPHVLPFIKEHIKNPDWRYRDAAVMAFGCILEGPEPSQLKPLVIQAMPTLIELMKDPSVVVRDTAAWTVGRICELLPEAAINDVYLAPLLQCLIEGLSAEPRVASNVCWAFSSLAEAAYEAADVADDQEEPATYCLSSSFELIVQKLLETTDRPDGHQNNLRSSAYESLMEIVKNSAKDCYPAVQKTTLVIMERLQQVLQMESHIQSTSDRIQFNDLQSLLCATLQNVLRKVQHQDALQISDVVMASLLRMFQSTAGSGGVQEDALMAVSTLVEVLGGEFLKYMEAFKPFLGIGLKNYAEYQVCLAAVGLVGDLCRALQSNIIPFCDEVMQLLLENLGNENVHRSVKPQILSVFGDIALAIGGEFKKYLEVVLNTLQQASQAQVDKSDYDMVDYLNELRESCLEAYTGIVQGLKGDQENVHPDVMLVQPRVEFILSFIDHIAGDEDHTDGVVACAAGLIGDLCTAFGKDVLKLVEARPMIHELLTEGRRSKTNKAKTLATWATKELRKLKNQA
#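 Inhibition scored from the CFP 486 nm/YFP 530 nm FRET ratio 45 min after adding 0.125 microM importin beta to 50 nM Rango biosensor preincubated 5 min with compound (room temperature, PBS with DTT, Tween-20, BSA). No-importin wells as positive control.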
# Active calls of the source: *; ? = inconclusive; / = no result given; & = joins results of further samples. The list is partial, so the mix of outcomes need not match the whole.
Compound,GLA inh pH 4.5,miR-21 reporter,Rango dissoc inh,Rango-impB inh
O=C(NCCCNC(=O)c1cnccn1)c1cccc(F)c1,/,-1%,-13%,5.9%
CCOC(=O)Cc1csc(NC(=O)CN(C)S(=O)(=O)c2cccc3cccnc23)n1,1,-2%,0%,0.9%
Cn1nc(C(=O)NCCCN2CCCCC2)c2c1-c1ccccc1S(=O)(=O)C2,/,1%,?,-1.4%
CCCN1CNc2c(c(=O)[nH]c(=S)n2CCc2ccc(OC)c(OC)c2)C1,2,-18%,19%,-4.8%
Cc1ccc(OCc2cc(C(=O)NCc3ccc(OC(F)(F)F)cc3)no2)cn1,/,13%,-1%,0.5%
CSc1nsc(N/N=C/c2ccccc2)c1C#N,-7,-29%,-24%,-4.9%
CSc1nc2ccc3nc(NC(=O)C4COc5ccccc5O4)sc3c2s1 (centres undefined),-9,-3%,-6%,-3.8%
CCc1ccc(C(=O)Cn2cnc3cc([N+](=O)[O-])ccc3c2=O)cc1,5,-11%,22%,-4.8%
Nc1ccc(SCc2nc3cccc4c3n2CCC4)cc1,-13,-80%,8%,2.4%
Cc1ccnc(SCC(=O)NC2CCCCCC2)n1,/,-4%,-6%,-1.3%
CC(NC(=O)COC(=O)c1ccc(Br)o1)c1ccccc1 (centres undefined),/,/,11%,0.5%
Cc1ccc(-c2cc(N)on2)cc1,-2,-25%,1%,0.8%
O=C(CN1CCOCC1)Nc1ccc(Br)cn1,2,-7%,1%,-0.7%
COc1ccccc1N1CCN(C2CCCN(C(=O)c3cccc(-c4ccco4)c3)C2)CC1 (centres undefined),/,17%,-11%,0.2%
OC(COCc1ccco1)CN1CCN(C(c2ccccc2)c2ccccc2)CC1 (centres undefined),6,-1%,-10%,0.9%
COc1ccc(NC2CCCN(C(=O)c3ccc(OC)o3)C2)cc1 (centres undefined),/,2%,15%,1.1%
OCCC1CN(Cc2ccon2)CCN1CCc1ccccc1 (centres undefined),3,0%,-2%,0.1%
O=C(Nc1cc(Cl)ccc1Cl)c1noc2c1CCCC2,-5,-4%,14%,1.7%
COc1cccc2c1[C@@H]1CN(CCCCn3c(=O)[nH]c4c(sc5ncc(-c6ccccc6)nc54)c3=O)C[C@@H]1CO2,-18,/,-3%,6.9%
Cc1ccc(N=Nc2c(C)[nH]n(C(N)=S)c2=O)cc1,-5,-28%,14%,0.3%
CC(C)NC(=O)c1ccccc1N(Cc1ccccc1)S(C)(=O)=O,1,-3%,0%,3.0%
COCCCNC(=O)c1cn(CCOC)c(=O)c2c1c1ccccc1n2C,/,4%&-2%,1%,-2.6%
CCCOc1ccc(C(=O)NNC(=S)NC(C)=O)cc1,-11,7%,4%,-0.6%
O=C(Nc1nc(-c2cccs2)c(-c2cccs2)s1)C1CCCC1,-10,3%,-5%,2.0%
CC(C1CC1)N(Cc1ccccc1)C(=O)NC(=O)c1ccccc1 (centres undefined),3,-7%,-1%,-1.3%
CSc1ccc(C#N)cc1NC(=O)c1ccc(Cl)cc1,1,-16%,-15%,0.7%
Cc1nc(-c2ccc(F)cc2)c(CC(=O)N2CCN(S(=O)(=O)c3cccc(Cl)c3)CC2)s1,/,/,-10%,0.8%
COc1ccccc1NC(=O)c1nn(C)cc1Br,0,-15%,1%,-1.1%
COc1cc(OC)c(OC)cc1CN1CCN(C(=O)CC(C)C)CC1,/,0%,0%,4.2%
CCOC(=O)c1c(NC(=S)Nc2cccnc2)sc(C)c1C,6,-2%,-8%,-4.3%
COc1ccc(/C(=N/Nc2ncnc3ccccc23)C(=O)O)cc1,/,-51%,-29%,2.9%
COc1cc(/C=N/NC(=O)CC2(C)OCCCO2)ccc1OCc1ccccc1,0,-41%,9%,-2.8%
COC(=O)c1sccc1NC(=S)Nc1cccc(F)c1,0,-1%,-6%,0.3%
CCn1c(-c2ccoc2C)n[nH]c1=S,1,-1%,-1%,7.5%
Cc1cc(C)c(O)c(-c2cc(C(=O)NCCc3ccc(S(N)(=O)=O)cc3)[nH]n2)c1,2,-1%,3%,-4.0%
COC(=O)c1ccccc1NC(=O)Cn1cnc2cc(C)c(C)cc21,-3,9%,-20%,-1.0%
O=C(C[N+]1(CC#Cc2ccccc2)CCCCC1)c1ccc(Cl)cc1,5,7%,12%,0.8%
CC1(C)CC(N=Cc2c(O)n(Cc3ccc4c(c3)OCO4)c(=O)c3ccccc23)CC(C)(C)N1,-21,-3%,6%,-5.9%
CCCCNC(=O)N(O)C1N(/N=C/c2cccnc2)C(=S)SC1(C)C (centres undefined),-1,-4%,-16%,-0.3%
C=CCn1c(SCC(=O)NC23CC4CC(CC(C4)C2)C3)nc(O)cc1=O,-16,-4%,-2%,0.3%
CC(Sc1nnc(N)s1)C(=O)Nc1ccc(N2CCOCC2)cc1 (centres undefined),-3,-3%,-26%,-0.6%
COc1ccc(NC(=O)c2cc3c(CO)cnc(C)c3oc2=Nc2cccc(F)c2)c(OC)c1,/,-2%,-5%,1.3%
Cc1cc(S(=O)(=O)N2c3ccc(F)cc3CCC2C)ccc1-n1cnnn1 (centres undefined),/,-3%,-10%,5.1%
Cc1ccc(C2=[N+]([O-])C(C)N(O)C2(C)C)o1 (centres undefined),-3,1%,-14%,0.1%
CCCCCN(C(=O)CCC(=O)OCC(=O)NCc1cccc(OC)c1)c1c(N)n(CCCC)c(=O)[nH]c1=O,/,-2%,13%,0.2%
Nc1ccnn1Cc1ccncc1,1,1%,0%,?
Cc1cc(C)cc(NC(=O)CSc2nc3[nH]ncc3c(=O)[nH]2)c1,4,22%,-13%,-6.0%
COC(=O)CN1C2=NCCCN2c2ccccc21,10,0%,-5%,0.3%
COc1ccc(N2CCN(S(=O)(=O)c3cnc[nH]3)CC2)cc1,-3,-6%,-9%,4.7%
CCN(CC)C1CCN(C(=O)c2ccc(OC3CCN(Cc4ccccn4)CC3)cc2)C1 (centres undefined),/,3%,0%,0.7%
COc1cc(C(=O)NCc2ccco2)cc(OC)c1OC,5,2%,7%,2.7%
CCCC1Cc2c(sc3nc(SC)nc(N)c23)CO1 (centres undefined),-2,-11%,-10%,-1.5%
COc1ccc(C2OC(=O)CC2C(=O)NC2CCCCCC2)cc1OC (centres undefined),4,-4%,-1%,2.8%
O=C(CCn1nnc2ccccc2c1=O)N[C@@H](Cc1c[nH]c2ccccc12)C(=O)O,-3,5%,9%,-1.5%
Cc1cccc(C)c1NC(=O)CNC(=O)CCCc1c[nH]c2ccccc12,/,/,2%,0.2%
CN(C(=O)CSc1n[nH]c(-c2cccs2)n1)C1CCS(=O)(=O)C1 (centres undefined),/,/,11%,2.6%
CC(=O)c1ccc(N(C(=O)c2ccco2)C(C(=O)NC2CCCC2)c2ccc(N3CCOCC3)cc2)cc1 (centres undefined),8,-6%,32%,-2.3%
CCN1CCN(c2c(Cl)cccc2NC(=O)c2ccc([N+](=O)[O-])cc2)CC1,1,-5%,-11%,2.7%
COC(=O)C1CCN(C(=O)C2CCN(C(=O)[C@@H](NS(=O)(=O)c3ccc(C)cc3)C(C)C)CC2)CC1,/,0%,5%,-1.9%
Cc1ccc(-n2c(SCC(=O)NC3CCS(=O)(=O)C3)nc3ccccc3c2=O)cc1 (centres undefined),5,-13%,-8%,2.7%

# Further entries follow:
Compound,GLA inh pH 4.5,miR-21 reporter,Rango dissoc inh,Rango-impB inh
CC(=O)Nc1ccc(S(=O)(=O)N(C)c2ccc(OCC(=O)OCC(=O)N3CCCCC3)cc2)cc1,8,1%,-4%,-0.1%
COc1ccc(N2C(=O)[C@@H]3[C@H](C2=O)[C@H]2c4ccccc4C=CN2[C@@H]3C(=O)Nc2ccccc2)cc1,-3,-18%,?,?
Cc1c(C)c2cc(Cl)c(OCC(=O)N3CCN(c4ccc(F)cc4)CC3)cc2oc1=O,/,-2%,-4%,0.5%
Cc1cccnc1Sc1c([N+](=O)[O-])ncn1C,-5,-6%,-13%,-1.2%
O=C1C(=Cc2ccco2)CCC1=Cc1ccco1,/,/,-30%,?
CC1S/C(=C(\C#N)C(N)=O)N(c2ccc(F)cc2)C1=O (centres undefined),-5,2%,-11%,-3.2%
CC1(C)CC(=O)C(C=NCCc2ccc(S(N)(=O)=O)cc2)=C(O)C1,-3,-2%,-4%,5.1%
O=C(NCc1ccc2c(c1)OCO2)C(=O)NCC1OCCN1S(=O)(=O)c1ccc(F)cc1 (centres undefined),/,-4%,-3%,2.5%
Cc1ccc(SC(=O)COc2ccc(C)c(C)c2)cc1,7,5%,-3%,0.0%
CCOc1ncccc1C(=O)N(C)CC(=O)Nc1ccccc1SC,-1,-4%,4%,0.0%
CSc1ccc(/C=C(\C#N)C(=O)Nc2cccc(C)c2)cc1,1,-4%,?,?
CC(=O)c1cc2c(cc1NC(=O)CCc1ccccc1)OCO2,-1,-22%,-11%,?
CCCNC(=O)c1ccc(N2CCC3(CC2)CC(c2ccccc2)=NO3)c(NC(=O)c2cccc(OC)c2)c1,/,2%,9%,-1.9%
O=C(Cc1ccccc1)Nc1nnc(-c2ccccc2)o1,/,-11%,2%,1.1%
Cn1c(=O)[nH]c(=O)c2c1nc(CN1CCN(c3cccc(Cl)c3)CC1)n2CCN1CCOCC1,-13,-4%,-2%,-0.7%
CCCCCOc1ccc(C(=O)Nc2ccc(S(=O)(=O)Nc3cc(C)on3)cc2)cc1,/,-4%,-3%,0.8%
C/C(=N\NC(=O)c1ccc(CN2CCOCC2)cc1)c1ccc([N+](=O)[O-])cc1,5,-8%,13%,1.2%
CC(=O)c1ccc(NC(=S)NCCc2ccc(S(N)(=O)=O)cc2)cc1,-12,-26%,0%,-2.6%
Cc1ccc(NC(=O)Cn2nc(-c3ccccc3Cl)ccc2=O)c(Br)c1,5,-8%,1%,-1.7%
CCOc1ccccc1N1CC(C(=O)Nc2ccc3c(c2)OCCO3)CC1=O (centres undefined),13,-3%,-8%,-3.2%

# Reprinted at random: 4 compounds from above
Compound,GLA inh pH 4.5,miR-21 reporter,Rango dissoc inh,Rango-impB inh
O=C(CCn1nnc2ccccc2c1=O)N[C@@H](Cc1c[nH]c2ccccc12)C(=O)O,-3,5%,9%,-1.5%
CSc1ccc(C#N)cc1NC(=O)c1ccc(Cl)cc1,1,-16%,-15%,0.7%
Cc1ccc(-c2cc(N)on2)cc1,-2,-25%,1%,0.8%
COc1ccc(/C(=N/Nc2ncnc3ccccc23)C(=O)O)cc1,/,-51%,-29%,2.9%

# Further results.
Compound,GLA inh pH 4.5,miR-21 reporter,Rango dissoc inh,Rango-impB inh
COC(OC)c1ccnc(-c2ccc(OC(C)=O)cc2)n1,1,-16%,-12%,-1.9%
CC1CCCN(Cc2nc(Cc3ccccc3Cl)no2)C1 (centres undefined),0,-18%,0%,-2.8%
O=C(NCc1n[nH]c(=S)n1-c1ccccc1)c1cccs1,2,0%,2%,1.3%
O=C(CCNC(=O)c1ccc(Br)cc1)NCc1ccncc1,/,/,5%,4.4%
Cc1cc(C(=O)CCl)c(C)n1CCc1ccccc1,-8,28%,-10%,0.3%
COC(=O)c1cc(OC)c(OC)cc1NC(=O)c1cnccn1,-6,-5%,/,/
COCCn1nnnc1C(c1cc2cccc(C)c2[nH]c1=O)N1CCN(c2ccccc2F)CC1 (centres undefined),-4,0%,-9%,-1.0%
Cc1ccccc1-n1c(C)nnc1SCc1cc(=O)oc2ccc3ccccc3c12,-25,-7%,1%,?
O=C(COC(=O)c1ccc(O)cc1O)Nc1ncc(Cl)cc1Cl,/,/,-17%,?
